# UCH37 DUB inh: inhibitors of human deubiquitinating enzyme UCH37; Q9Y5K5; purified proteasome/UCH37, Ub-AMC cleavage fluorescence; inhibition, % (no concentration beside the values); 330,000 compounds, 0.33% hits; AID 588478;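 active = mean of two replicates above 20%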;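 note: 0% = compound-free wells with enzyme and 100% = wells lacking proteasome; stock transfer was 100 nL into about 20 µL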
#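 System: Proteasome-associated human UCH37 deubiquitinase; Input: 0.15 nM proteasome in added enzyme buffer; Also added: Ub-AMC substrate from 1 µM stock; Incubation: 30 min compound-proteasome preincubation then 25 min substrate reaction, room temperature; Detection: fluorescence, ex 355 nm, em 460 nm; Read-out: % inhibition of Ub-AMC cleavage fluorescence; Benchmarks: no-proteasome and no-compound wells.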
# E coli growth: inhibitors of Escherichia coli growth; OD600, 23 h; active compounds read low; OD600 absorbance (test concentration not listed); 330,000 compounds, 0.21% hits; AID 1053175;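 active = OD600 absorbance below the run mean of sample wells minus 3.6 SD, in any replicate, cut at about 0.56 in these data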;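 note: stock transfer was 300 nL into about 60 µL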
# LANA-H2A inh: blocks KSHV LANA binding to histone H2A/H2B; cell-free LANA-H2A/H2B peptide, fluorescence polarization; 320,000 compounds, 0.6% hits; inhibition, % (no concentration beside the values); Q9QR71; in the data active = inhibition mostly above about 10%, no sharp cut-off; inactive = mostly below about 6.7%;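 note: stock transfer was 7.5 nL into about 10 µL; 0% = median of vehicle wells and 100% = median of positive control wells; one replicate is shown; the record names a cut of 25% in any replicate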
# Target sequence (Q9QR71 whole entry, looked up): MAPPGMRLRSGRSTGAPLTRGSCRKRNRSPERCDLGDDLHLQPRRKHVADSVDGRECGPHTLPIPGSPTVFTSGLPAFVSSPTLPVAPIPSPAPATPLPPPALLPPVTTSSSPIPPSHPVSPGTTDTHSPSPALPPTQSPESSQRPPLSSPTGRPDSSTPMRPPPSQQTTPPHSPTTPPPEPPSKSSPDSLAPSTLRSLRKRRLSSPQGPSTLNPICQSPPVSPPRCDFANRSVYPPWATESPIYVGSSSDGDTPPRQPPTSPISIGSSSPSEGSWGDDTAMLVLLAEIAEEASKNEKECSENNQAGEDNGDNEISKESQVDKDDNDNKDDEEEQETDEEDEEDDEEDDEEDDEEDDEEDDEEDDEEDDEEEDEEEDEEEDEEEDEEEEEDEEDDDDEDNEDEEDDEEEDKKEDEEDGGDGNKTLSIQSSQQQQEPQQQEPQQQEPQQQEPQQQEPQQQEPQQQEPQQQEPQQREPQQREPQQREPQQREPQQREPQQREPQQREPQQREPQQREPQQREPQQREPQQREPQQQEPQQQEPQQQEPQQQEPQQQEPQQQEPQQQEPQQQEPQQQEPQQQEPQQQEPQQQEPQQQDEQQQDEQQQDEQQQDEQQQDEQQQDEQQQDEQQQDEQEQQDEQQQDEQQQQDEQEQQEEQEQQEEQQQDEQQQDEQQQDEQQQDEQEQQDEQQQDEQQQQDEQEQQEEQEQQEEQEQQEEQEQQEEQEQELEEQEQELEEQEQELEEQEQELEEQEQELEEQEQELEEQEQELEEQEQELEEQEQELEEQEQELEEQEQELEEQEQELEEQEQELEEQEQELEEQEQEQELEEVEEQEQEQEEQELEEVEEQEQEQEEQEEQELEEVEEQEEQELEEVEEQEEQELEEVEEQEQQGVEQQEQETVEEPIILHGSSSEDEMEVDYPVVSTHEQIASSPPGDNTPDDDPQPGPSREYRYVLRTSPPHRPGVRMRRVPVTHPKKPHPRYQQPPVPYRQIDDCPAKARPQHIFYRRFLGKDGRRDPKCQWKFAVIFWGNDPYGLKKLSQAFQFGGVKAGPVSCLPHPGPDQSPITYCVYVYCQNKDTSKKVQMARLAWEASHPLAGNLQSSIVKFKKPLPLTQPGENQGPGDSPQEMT
# B2AR ag: activates human beta-2 adrenergic receptor causing internalization | P07550 | Am2.2-beta2AR cells, FAP receptor internalization, flow cytometry; reference of the scale not given here | response, % (concentration not given with the values) | 340,000 compounds, 0.43% hits | AID 504454;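 active = response above a set limit, near 3 SD of response in nonfluorescent compounds, cut at about 42% in these data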;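 note: stock transfer was 100 nL into about 11 µL; a reference agonist was the positive control; negative values mostly stem from fluorescent compounds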
# ALR inh: blocks human ALR sulfhydryl oxidase activity. P55789. purified ALR, DTT oxidation, H2O2 HRP-luminol luminescence. inhibition, % (test concentration not listed). 290,000 compounds, 3.8% hits;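 active = mean and each replicate at 75% or more; inconclusive = only one of the two met; inactive = neither met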;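 note: stock transfer was 7.5 nL into about 7.5 µL; 0% = neutral wells and 100% = wells with inactivated enzyme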
# FGF22 binding: FGF22 (human) thermal shift binding. calls only at 9.99 µM. 340,000 compounds, 1.5% hits. AID 651658. recombinant FGF22 thermal shift, SYPRO orange fluorescence; percent of sucrose octasulfate shift, DMSO zero;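 active = melting point raised past a set limit in the mean and every replicate; inconclusive = no clear call; three in four hits are not shown here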
# HNF4A DNA FP: change in binding of human HNF4 alpha to DNA. P41235. HNF4a-FITC DNA binding, fluorescence polarization, 1 h. activity change, % at 10 µM. 360,000 compounds, 0.3% hits. AID 1224865; in the data active = activity change above about 30%, passing the limit was not always enough;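 note: controls were the assay level and a saturating level of protein; the project sought stronger binding though the title names inhibitors; some compounds called inactive have numbers as strong as hits; positive values seem to mean higher polarization but the record does not say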
# Starred values were filed as active, the others as inactive; i = inactive; ? = inconclusive; / = no result given.
SMILES,UCH37 DUB inh,E coli growth,LANA-H2A inh,B2AR ag,ALR inh,FGF22 binding,HNF4A DNA FP
CC(C)c1ccc(NC2CCCN(C(=O)CCN3CCCCC3=O)C2)cc1 (stereo unspecified),1.2,0.7,0.4,-7,97*,i,3.6
COc1cc(C#N)ccc1OC(=O)C1CCN(C(=O)c2ccc(F)cc2)CC1,3.1,0.68,3.9,3,8,i,1.9
CC1CCN(C(=O)c2nc[nH]c2C(=O)OCCNC(=O)OC(C)(C)C)CC1,0.3,0.65,-0.5,0,-1,i,2.2
CN1C(C)(C)CC(NC(=O)CCC(=O)NC2CC(C)(C)N(C)C(C)(C)C2)CC1(C)C,5.3,0.74,-11,3,-1,/,-3.0
CCN(CC)c1ccc(C(=O)OCC(=O)Nc2ccc3[nH]c(=O)[nH]c3c2)cc1,4.7,0.72,-1.0,7,-10,i,-2.7
CC(CCN1CCOCC1)c1ccccc1 (stereo unspecified),1.1,0.7,3.5,4,-2,i,1.2
O=C1c2ccccc2C(=O)N1CCC(c1ccc(F)cc1)c1ccco1 (stereo unspecified),-1.3,/,-0.6,6,38,/,0.1
O=C(CSc1nc2c(cnn2-c2ccccc2)c(=O)[nH]1)NCC1CCCO1 (stereo unspecified),3.5,0.7,/,-1,/,i,1.8
CC(c1ccco1)N(C(=O)COc1ccccc1[N+](=O)[O-])c1ccccn1 (stereo unspecified),3.6,0.72,-1.5,5,/,/,-1.9
CCNc1nc(NCC)nc(N/N=C/c2ccc(O)c(OC)c2)n1,/,/,2.0,5,99*,i,0.3
Cc1cccc(N(C(=O)c2sc(C)nc2C)C(C(=O)NCC2CCCO2)c2ccccc2)c1 (stereo unspecified),4.3,0.65,-1.5,-6,/,i,-5.3
COc1ccc(-c2cc(=O)c3ccccc3[nH]2)cc1,-5.5,0.65,-6.2,-5,-1,i,0.1
O=C(/C=C/c1ccc2c(c1)OCO2)Nc1nc2ccccc2s1,/,/,3.4,20,5,/,-0.8
CC/C(=N\NC(N)=O)c1ccc(OC(F)F)cc1,/,/,-9.3,13,/,i,5.6
CCCC(=O)Nc1cc(C)c(NC(=O)c2ccccn2)cn1,3.9,0.64,2.8,-9,/,/,-2.4
O=C(NN1C(=O)/C(=C\c2cccnc2)SC1=S)C(c1ccccc1)c1ccccc1,12,0.73,1.0,12,0,i,0.6
CN1C(=S)SC(/[N+]([O-])=C\c2ccccc2F)C1(C)C (stereo unspecified),2.4,0.65,3.8,6,-6,i,2.6
C[N+]1(CCOc2ccc([N+](=O)[O-])cc2)CCOCC1,1.3,0.72,4.1,3,-5,/,1.1
CC(Sc1ccc(S(=O)(=O)N2CCN(C)CC2)cn1)C(=O)Nc1cccc(Cl)c1Cl (stereo unspecified),/,/,/,-4,/,i,0.5
Cc1ccc(CN(Cc2cc3cc4c(cc3[nH]c2=O)OCCO4)Cc2nnnn2Cc2ccco2)cc1,-76,0.77,i,-5,-4,/,0.5
Cc1ccc(C(=O)Oc2cccc(NC(=O)c3cccs3)c2)cc1S(=O)(=O)N1CCOCC1,5.3,0.78,-2.3,-1,-2,/,-4.2
O=C(CCc1nc(-c2ccccc2)no1)NCCc1ccccc1,3.9,0.67,-5.1,-1,-9,/,0.5
COc1ccc(C2CC(c3ccc(OC)c(OC)c3)=NN2C(=O)c2ccccc2)cc1 (stereo unspecified),-1.1,0.66,4.8,-5,/,i,-1.7
O=C(c1cc(-c2ccccc2)nn1-c1ccccc1)N1CCN(S(=O)(=O)c2ccc(F)cc2)CC1,3.4,0.69,-0.3,10,-15,i,2.6
CCC(C)/C(C)=N/Nc1ccc(S(N)(=O)=O)cc1[N+](=O)[O-] (stereo unspecified),/,/,5.1,0,-55,i,4.9
O=C(CC1C(=O)NCCN1Cc1ccc(F)cc1Cl)NCc1ccon1 (stereo unspecified),-4.2,0.69,4.4,-5,1,i,-4.3
COc1cc2c(cc1OC)C(c1ccccc1O)NCC2 (stereo unspecified),6.0,0.69,-0.3,-7,4,i,0.1
C=CCN(c1ccccc1)S(=O)(=O)c1ccc2c(c1)oc(=O)n2C,1.1,0.76,1.9,-10,3,i,-6.2
Cc1ccn2cc(-c3cccc(NC(=O)CCC(=O)O)c3)nc2c1,-63,0.65,5.2,-1,98*,i,2.1
COc1cccc(C(=O)N2CCN(Cc3ccccc3[N+](=O)[O-])CC2)c1,-1.1,0.63,-2.5,6,/,i,-3.3

# In the list so far, 2 have an aryl thioether with sulfur outside any ring:
SMILES,UCH37 DUB inh,E coli growth,LANA-H2A inh,B2AR ag,ALR inh,FGF22 binding,HNF4A DNA FP
O=C(CSc1nc2c(cnn2-c2ccccc2)c(=O)[nH]1)NCC1CCCO1 (stereo unspecified),3.5,0.7,/,-1,/,i,1.8
CC(Sc1ccc(S(=O)(=O)N2CCN(C)CC2)cn1)C(=O)Nc1cccc(Cl)c1Cl (stereo unspecified),/,/,/,-4,/,i,0.5

# Continued.
SMILES,UCH37 DUB inh,E coli growth,LANA-H2A inh,B2AR ag,ALR inh,FGF22 binding,HNF4A DNA FP
Cc1cc(C)c(S(=O)(=O)N2CCCC2=O)c(C)c1,2.2,0.62,5.2,-2,-9,i,0.3
COc1cc(C(C(=O)NCC2CCCO2)N(C(=O)Cn2nnc3ccccc32)c2ccc(C(C)=O)cc2)ccc1O (stereo unspecified),2.3,0.65,7.0,1,25,i,0.9
Oc1cc(Nc2ccncc2)cc2cccnc12,7.2,0.51,2.8,5,-8,i,1.1
c1ccc(-c2nc(NC3CC3)nc(-n3ccnc3)n2)cc1,-0.8,0.7,0.0,-7,-13,/,-2.3
Cc1noc(C)c1S(=O)(=O)N1CCC2(CC1)OCCO2,2.2,0.71,-4.2,-2,14,/,-4.0
CN(C)c1ccc(/C=N/NC(=O)c2cccc(C(=O)N/N=C/c3ccc(N(C)C)cc3)n2)cc1,/,/,-1.5,3,/,i,0.2
Cc1ccccc1OCCCC(=O)Nc1ccccc1C(F)(F)F,2.0,0.75,-7.7,2,-2,/,0.7
O=C(NCCNc1nccc(C(F)(F)F)n1)c1cccc(C(F)(F)F)c1,0.6,0.67,1.0,-4,5,i,-0.1
COc1cccc(CC2(CO)CCCN(Cc3cc4ccccc4[nH]3)C2)c1 (stereo unspecified),1.7,0.66,-0.4,-5,-6,/,1.7
CCc1occc(=O)c1Oc1cc(NN2CCCCC2)c([N+](=O)[O-])cc1[N+](=O)[O-],3.0,0.7,0.8,-4,35,i,-0.6
CN(C(=O)COC(=O)CNC(=O)C12CC3CC(CC(C3)C1)C2)C1CCS(=O)(=O)C1 (stereo unspecified),6.9,0.71,-0.8,8,4,/,1.3
Cc1cc(C)n2nc(C(=O)Nc3nnc(C4CC4)s3)nc2n1,0.2,0.66,-1.6,8,-1,/,1.5
O=c1oc2ccccc2c2c1nnn2CCO,3.4,0.72,-5.1,7,/,/,8.3
Cc1onc(-c2ccccc2Cl)c1C(=O)Nc1nnc(Cc2ccc(Cl)cc2)s1,1.6,0.8,0.7,1,/,/,-2.4
Cc1ccc(S(=O)(=O)Nc2cccc(S(=O)(=O)N3CCCC3)c2)cc1C,5.3,0.7,/,-4,/,/,0.6
COc1ccc(C(C(=O)NC2CCCC2)N(C(=O)c2ccco2)c2cc3c(cc2C(C)=O)OCO3)cc1OC (stereo unspecified),2.0,0.64,5.4,-1,/,i,2.1
CCC(=O)Nc1cccc(-c2cnc3ccccc3n2)c1,8.0,0.69,1.7,-19,88*,/,2.0
O=[N+]([O-])c1ccc(NN=Cc2ccc(O)cc2)nc1,3.7,0.64,/,15,/,i,2.4
O=C(CCNS(=O)(=O)c1cccc2nsnc12)NCCC1=CCCCC1,7.0,0.7,2.9,-5,1,/,-2.3
CCOC(=O)/C(C#N)=C/c1c(N2CCN(Cc3ccc4c(c3)OCO4)CC2)nc2c(C)cccn2c1=O,3.4,0.66,-1.3,6,-33,i,8.3
O=C([C@H](O)c1ccccc1)N1CCC[C@H]1CO,0.1,0.62,2.3,-3,-8,i,0.2
CCN1CCN(C(CNS(=O)(=O)c2ccc(OC)c(C)c2)c2cccnc2)CC1 (stereo unspecified),3.3,0.71,-3.6,-1,-10,i,3.4
N#Cc1ccc(OCC(=O)Nc2nc(-c3ccncc3)cs2)cc1,0.1,0.65,0.0,5,-1,i,-2.0
Cc1occc1C(=O)Nc1cc(S(=O)(=O)N2CCOCC2)ccc1OC(C)C,0.8,0.69,-8.1,2,0,i,-2.3
COc1ccccc1C(=O)N1C(CC(=O)Nc2ccc(C)c(C)c2)C(=O)NC2CCCCC21 (stereo unspecified),1.2,0.7,-1.2,19,-2,i,5.5
CC(=O)Nc1nnc(SCC(=O)N2CCN(Cc3ccccc3)CC2)s1,5.3,0.66,-1.7,-4,1,/,0.6
COc1ccc(C(=O)N2CCOC2CNC(=O)C(=O)NCCc2ccc(OC)c(OC)c2)cc1 (stereo unspecified),0.2,0.64,3.1,20,3,i,-0.3
Cc1cnn(CCC(=O)NNC(=S)Nc2ccccc2)c1,3.4,0.75,2.5,3,?,/,2.2
Cc1ccnc(NC(=O)CSc2ccc3c(c2)OCCO3)c1,/,/,2.8,2,28,i,-0.9
Cc1ccccc1C(=O)Oc1ccc(Cl)cc1C(=S)N1CCOCC1,2.0,0.73,-2.7,10,0,i,-0.7
CSC1=NCCN1C(=O)C(C)Oc1ccccc1 (stereo unspecified),3.9,0.73,-0.5,-2,-8,i,4.4
COc1ccccc1C(CC(=O)O)c1ccc2c(c1)OCO2 (stereo unspecified),0.5,0.69,-3.5,-2,/,i,0.4
CN(C)C(=O)c1cc(C(=O)c2ccc(F)cc2Cl)c[nH]1,1.3,0.63,1.1,12,/,i,-0.4
Fc1ccccc1NC(=S)Nc1ccc(Br)cc1,1.2,0.57,-2.6,12,3,/,-2.7
COc1ccc(S(=O)(=O)Nc2cc(Cl)ccc2-n2cncn2)cc1,0.2,0.65,3.0,-4,/,i,0.8
Cc1ccc(NC(=O)c2ncn(CCCNCC(C)c3ccccc3)n2)cc1C (stereo unspecified),/,/,/,17,/,i,1.7
Cc1ccc(C(=O)N/N=C/c2ccc(-c3ccccc3[N+](=O)[O-])o2)cn1,/,/,-1.5,-7,63,i,-1.4
Cc1c(Cl)cnc(NC(=O)COC(=O)C2CC3CCCC(C2)C3=O)c1Cl (stereo unspecified),2.3,0.67,2.0,-3,-2,i,-1.0
COc1ccc(CCNC(=O)CSc2nnnn2-c2ccccc2OC)cc1OC,1.8,0.67,-1.2,4,-4,i,1.0
COc1ccc(C(=S)N2CCN(C)CC2)cc1Br,4.2,0.69,5.3,0,7,/,-2.3
CC(C)CC1C2C(=O)N(c3ccccc3)C(=O)C2ON1c1ccccc1 (stereo unspecified),4.9,0.67,1.9,2,/,i,-2.4
CC(C)(C)c1ccc(S(=O)(=O)NCC(=O)Nc2sc3c(c2C(N)=O)CCCC3)cc1,-5.5,0.77,2.6,0,-29,/,0.5

# 5 entries already listed, arranged by the number in B2AR ag, rising.
SMILES,UCH37 DUB inh,E coli growth,LANA-H2A inh,B2AR ag,ALR inh,FGF22 binding,HNF4A DNA FP
Cc1ccc(C(=O)N/N=C/c2ccc(-c3ccccc3[N+](=O)[O-])o2)cn1,/,/,-1.5,-7,63,i,-1.4
COc1ccc(S(=O)(=O)Nc2cc(Cl)ccc2-n2cncn2)cc1,0.2,0.65,3.0,-4,/,i,0.8
Cc1c(Cl)cnc(NC(=O)COC(=O)C2CC3CCCC(C2)C3=O)c1Cl (stereo unspecified),2.3,0.67,2.0,-3,-2,i,-1.0
COc1ccccc1C(CC(=O)O)c1ccc2c(c1)OCO2 (stereo unspecified),0.5,0.69,-3.5,-2,/,i,0.4
COc1ccc(C(=S)N2CCN(C)CC2)cc1Br,4.2,0.69,5.3,0,7,/,-2.3

# The list is partial; count on the stated rates, not on these rows.
